VDR inh – blocks the human vitamin D receptor; 400,000 compounds, 0.93% hits; Potency, µM, for inactives: max response, negative = inhibition, hits mostly inhibitors; VDR-SRC2-3 peptide fluorescence polarization, 2 h; P11473; active = well fitted inhibition curve with a large enough effect; inconclusive = small, poorly fitted or top-dose-only effect, or another doubt; inactive = no such curve, though single readings can be large or run the other way; note: series mostly up to about 120 µM
Target sequence (P11473 whole entry, looked up): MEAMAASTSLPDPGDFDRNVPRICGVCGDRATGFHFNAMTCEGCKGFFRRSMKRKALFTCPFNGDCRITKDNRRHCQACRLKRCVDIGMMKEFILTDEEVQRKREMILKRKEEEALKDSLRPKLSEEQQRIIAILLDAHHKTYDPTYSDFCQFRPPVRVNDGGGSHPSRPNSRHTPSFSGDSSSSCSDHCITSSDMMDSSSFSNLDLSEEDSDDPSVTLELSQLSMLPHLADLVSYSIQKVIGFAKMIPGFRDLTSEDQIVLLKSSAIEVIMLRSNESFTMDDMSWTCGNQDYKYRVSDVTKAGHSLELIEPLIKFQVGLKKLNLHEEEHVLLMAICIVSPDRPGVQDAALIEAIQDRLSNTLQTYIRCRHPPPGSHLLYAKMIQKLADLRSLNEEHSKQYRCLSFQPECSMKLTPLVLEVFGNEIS
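Fluorescence polarization assay measuring small-molecule disruption of VDR binding to the coregulator peptide SRC2-3. Compounds were pin-transferred (23 nl) into the reagent mix and incubated 2 h at room temperature before reading.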
* hit, by the source's call; ? = inconclusive; & = joins results of further samples. % is set by controls: 0 for no effect and ±100 for the full control effect; potency is the fitted concentration of half-maximal effect. Only part of the results is shown; rates above refer to the full screens.

SMILES	VDR inh
COCC1=C(C(=O)OC(C)OC(=O)OC(C)C)N2C(=O)[C@@H](NC(=O)/C(=N\OC)c3csc(N)n3)[C@H]2SC1 (some centres not stated)	-6%
O=C(O)C1CCCN(S(=O)(=O)c2ccccc2[N+](=O)[O-])C1 (configuration not stated)	-18%
CCCN1CCN(C(=O)c2oc3ccccc3c2NC(=O)COc2ccc(OC)cc2)CC1	20µM*
CC(C)(C)c1ccc(C(=O)NCC(=O)OCc2cc(=O)n3nc(C4CC4)sc3n2)cc1	-3%
Cc1cccc(C)c1N1CCN(c2n[nH]c(N)n2)CC1	5%
Cc1cccc(C(=O)N2CCc3cc(CNC(=O)CSc4ccccc4)ccc32)c1	0%
CCn1cc(C(=O)NCC2CCCO2)c(=O)c2cc(S(=O)(=O)N3CCCCCC3)ccc21 (configuration not stated)	3%
O=C(Cn1ccc(NC(=O)OCc2ccccc2)nc1=O)NCC1CCCO1 (configuration not stated)	-22%
Nc1c2c(nn1-c1ccc(F)cc1)CSC2	-13%
COC(=O)CN(C#N)c1nc(NC(C)C)nc(NC(C)C)n1	-3%
Cc1ccc2nc(N(CCN(C)C)C(=O)c3ccc4c(c3)OCCO4)sc2c1	28%
Cc1ccc(S(=O)(=O)N2CC=C(C(=O)NC3CCCC3)CC2)cc1	?
O=C(COC(=O)c1ccc(S(=O)(=O)N2CCOCC2)cc1)NC1CCCC1	-1%
Cc1oc(-c2ccc3c(c2)OCCO3)cc1C(=O)NC(CCC(=O)O)C(=O)O (configuration not stated)	-1%
CCCc1ccc(Oc2cn[nH]c2-c2ccc(O)c(C)c2O)cc1	4%
COc1cccc(C(=O)Nc2cccc(C(=O)NC3=NN(c4c(Cl)cc(Cl)cc4Cl)C(=O)C3)c2)c1	-5%
CCn1c(=O)c(=O)n(CC)c2cc(N3CCCCC3)c(NC(=O)c3cccc(OC)c3)cc21	-5%
CCN1Cc2cccc(C(=O)Nc3ccc(F)cc3)c2C1=O	8%
COc1ccc(CC(=O)N/N=C(\C)CC(=O)Nc2ccc(N(C)C)cc2)cc1OC	-8%
COc1cc(NC(=O)C2C3C=CC(C3)C2C(=O)O)c(OC)cc1Cl (configuration not stated)	11%
CCc1ccccc1NC(=O)CN(C)S(=O)(=O)c1cccc2nsnc12	11%
O=S(=O)(NCCc1csc2nc(-c3ccccc3)nn12)c1cccs1	9%
COc1ccc(-c2nc3cc(NC(=O)c4cc5ccccc5o4)ccc3o2)cc1	-8%
CCC(=O)Nc1ccc(Cl)c(NC(=O)c2ccc(Br)o2)c1	1%
O=C(CN1C(=O)C2CC=C(Cl)CC2C1=O)N1CCOCC1 (configuration not stated)	18%
CCOC(=O)/C=C1\NC(C)(C)Cc2cc(OC)c(O)cc21	4%
Cc1ccc(-n2c(SCC(=O)NCc3ccco3)nc3nc4c(cc3c2=O)COC(C)(C)C4)cc1	-13%
COc1ccc(Br)cc1/C=N/n1c(C)nc2ccccc2c1=O	-3%
Cc1ccc(N=C2SCCCN2C(=O)C2=COCCO2)cc1Cl	-16%
CC(C)COc1ccc(C(=O)N2CCCCC2CCN2CCOCC2)cc1 (configuration not stated)	-2%
CN1CCN(C(=O)c2ccc3c(=O)n(Cc4ccc5c(c4)OCO5)c(=S)[nH]c3c2)CC1	0%
Cc1ccccc1OCc1nc(-c2ccc(NC(=O)c3cccs3)cc2)no1	-13%
COC(=O)c1ccc(COc2ccc(C)c(C)c2)o1	-2%
COc1cccc(C(=O)NC2CCNCC2)c1	-7%
O=C(Cc1ccccc1)Nc1ncccc1Cl	17%
Nc1nn2c(C(F)(F)F)cc(=O)[nH]c2c1N=Nc1cccc(F)c1	7%
CC(C)CCn1c2ccccc2c2cc(CC(N)=O)ccc21	27%
O=C(c1cc(=O)[nH]c2ccccc12)N1CCN(S(=O)(=O)c2ccc(Cl)cc2)CC1	10%
O=c1c2[nH]cnc2n(-c2cccc(F)c2)c(=O)n1Cc1ccccc1	2%
CCCCNC(=O)c1onc(CSc2ccccc2F)c1C(=O)O	12%
COC(=O)/C(C#N)=C/c1c[nH]c2ccccc12	-1%
CC(=O)c1ccc(N(C(=O)c2ccco2)C(C(=O)NC2CCCC2)c2cccs2)cc1 (configuration not stated)	10%
COc1cccc(CC(=O)OCC(=O)NCc2ccc3c(c2)OCO3)c1	14%
Cc1cc(C(=O)CN2CCC(C)CC2)c(C)n1-c1ccc(F)cc1	5%
COc1ccc(CCN(C)C(=O)c2oc3ccccc3c2C)cc1OC	-3%
O=C(Nc1ccc2c(c1)oc1ccccc12)N1CCOCC1	23%
Nc1ccc(C(=O)c2ccccc2C(=O)O)cc1Cl	0%
Cc1cccc(-c2nc(-c3ccncc3)no2)c1	-9%
Cc1cccc(C)c1NC(=O)Cc1cccs1	-9%
O=C(CCSc1nc(-c2ccco2)cc(C(F)(F)F)n1)N1CCCc2ccccc21	-13%
O=C(N/C(=C\c1ccc(Br)cc1)C(=O)N1CCOCC1)c1ccccc1Cl	-11%
CCN(CC)S(=O)(=O)c1ccc(Cl)c(NC(=O)COc2ccc3c(C)cc(=O)oc3c2)c1	-8%
C=CCNC(=S)NCCCCC1NC(=S)N(CC=C)C1=O (configuration not stated)	-5%
COc1ccc([C@H]2CC(=O)C=C(c3cc4ccccc4c4ccccc34)C2)cc1	-20%
Oc1ccc(Nc2ncnc3scc(-c4ccccc4)c23)cc1	-1%
Cc1ccccc1OCC(=O)NNC=O	-6%
COc1cccc(C(=O)NNC(=O)Cc2cccs2)c1	-3%
CCN(CCO)C(=O)C(c1ccccc1)c1ccccc1	-3%
COc1cccc(OC)c1C(=O)Nc1ccc2c(c1)CCCN2S(=O)(=O)c1ccc(C)cc1	?
CCOc1ccc(S(=O)(=O)NCCC(=O)NC2CCC(C)CC2)cc1 (configuration not stated)	-1%

Continuation.
SMILES	VDR inh
CCN1CCN(c2ccc(S(=O)(=O)N3CCOCC3)cc2NC(=O)c2ccc(Cl)cc2Cl)CC1	2%
COC(=O)[C@H](CC(C)C)NC(=O)Nc1ccc2c(c1)OCCO2	0%
O=C(Nc1cc(C(F)(F)F)ccc1-n1cncn1)c1ccc(F)cc1Cl	-11%
O=S(=O)(NN=Cc1ccc(O)cc1O)c1cc(Cl)c(Cl)cc1Cl	-9%
CCN(CC)CCC(=O)N1c2ccccc2Sc2ccc(NC(=O)OC)cc21	0%
COc1ccc(/C=C(/NC(=O)c2ccco2)C(=O)Nc2cccc(C(=O)O)c2)cc1	0%
Cc1nc(-c2ccccn2)nc(SCC(=O)N2CCOCC2)c1Cl	-8%
COc1cc(OC)c(NC(=O)C2CCN(S(=O)(=O)c3c(C)noc3/C=C/c3c(C)cc(C)cc3C)CC2)cc1Cl	10%
CCn1c(SCC(=O)N2CCc3ccccc32)nc2c(c1=O)SC(C)C2 (configuration not stated)	7%
O=C(OCCCc1cc2ccccc2c(=O)o1)c1ccco1	-5%
COc1ccc(NC(=O)CCCn2nc(C)c3c(C)n(-c4ccccc4)nc3c2=O)cc1	-12%
COC(=O)CC1(C(=O)OC)Oc2ccccc2C(=O)N1c1ccc(F)cc1F (configuration not stated)	-11%
Cc1ccn2cc(CNS(=O)(=O)c3cccs3)nc2c1	13%
O=C(NCCN1CCOCC1)C1(C(F)(F)F)C/C(=C\CCO)CCCO1 (configuration not stated)	-12%
COc1ccc(NC(=O)CSc2nnnn2-c2ccc(OC)cc2)cc1	9%
CCN1C(=O)c2cccc3c(S(=O)(=O)Nc4c(C)n(C)n(-c5ccccc5)c4=O)ccc1c23	-1%
O=C(NC1CCN(Cc2ccccc2)CC1)c1cccc(S(=O)(=O)Nc2ccc(Br)cc2)c1	1%
O=C(c1nn2c(C(F)(F)F)cc(-c3ccccc3)nc2c1Cl)N1CCOCC1	1%
CC1CCC(C(C)C)C(OC(=O)CSc2nc(N)cc(=O)[nH]2)C1 (configuration not stated)	5%
COc1ccc(NC(=O)c2sccc2-n2cccc2)cc1	-14%
COCCN(C(=O)CCC(=O)Nc1cc(C)on1)C(C(=O)NC1CCCC1)c1ccccc1C (configuration not stated)	11%
CC(NCc1cccnc1)c1ccccc1 (configuration not stated)	-11%
CCC(C)OC(=O)C1C(c2ccccc2)C(C(=O)O)C1c1ccccc1 (configuration not stated)	-12%
COc1ccc(-c2oc3ccccc3c2C#Cc2cncn2C)cc1	-19%
CC(C)NC(=O)/C(=C\c1cccc([N+](=O)[O-])c1)NC(=O)c1ccccc1	1%
Cc1cccc(C)c1OCc1nc2ccccc2[nH]1	0%
COc1cc(NC(=O)CCN2CCN(C)CC2)cc(OC)c1	10%
C=C(CN(C)C)C(=O)c1cc(OC)c(OC)cc1OC	50µM*
O=c1c(Cl)c(NCc2ccc(F)cc2Cl)cnn1C12CC3CC(CC(C3)C1)C2	16%
OC[C@@H](O)C(O)[C@H](O)[C@H](O)CO (some centres not stated)	4%
Cc1ccc(NC(=O)C2CCC(C(C)(C)C)CC2)cc1S(=O)(=O)N1CCOCC1 (configuration not stated)	-2%
O=C(CSc1nc2ccccc2c(=O)n1-c1ccc(F)cc1F)c1c[nH]c2ccccc12	-1%
CC12CCC(=O)N1C(C(=O)Nc1ccc(F)c(Cl)c1)CS2 (configuration not stated)	-23%
COc1ccc(NC(=O)c2cc(=O)c3ccccc3o2)cc1Cl	-11%
CC1CCN(S(=O)(=O)c2ccc(S(=O)(=O)NCc3ccco3)cc2)CC1	12%
CCCCC1(CC(=O)OCC)C(=O)N(c2ccccc2)N(c2ccccc2)C1=O	1%
O=C(CCn1cccc1)N1CCc2ccccc21	0%
COc1ccccc1N(CC(=O)NCCc1ccccc1)C(=O)CCC(=O)Nc1cc(C)ccn1	7%
CCOC(=O)c1cc(C)n(Cc2ccccc2)c1C	-6%
Cc1[nH]n(-c2ccc(Cl)cc2)c(=O)c1N=Nc1cccnc1	19%
Cc1ccc(S(=O)(=O)N2CCCN(C)c3nc4ccccc4nc32)cc1	3%
Cc1ccccc1NC(=S)N(CCc1c(C)[nH]c2ccc(F)cc12)Cc1ccncc1	-17%
Cc1ccc(S(=O)(=O)Oc2ccc(/C=C(/NC(=O)c3ccccc3)C(=O)NCC(=O)O)cc2)cc1	28%
O=C(Nc1cccc(Cl)c1Cl)C1CCN(c2ncccn2)CC1	7%
Cc1nc2ccccc2c(C)c1C(=O)c1ccc(F)cc1	-4%
Cc1ccc2c(c1)C(=O)C(=O)N2c1ccc(Cl)cc1	-7%
N#C/C(=N\Nc1ccccc1Cl)C(=O)c1ccccc1	-3%
COc1ccc(-c2oc3ccc(-c4cc(OC)c(OC)c(OC)c4)cc3c2C#Cc2ccccn2)cc1	-5%
CC1C=C[C@@H]2[C@H](C1)C(=O)N(Cc1ccccc1)[C@H]2c1ccccc1Br (some centres not stated)	45µM*
CCCN1Cc2cccc(C(=O)Nc3ccccc3F)c2C1=O	-10%
Cc1ccc(C(C)C)c(OCCN)c1	-7%
CC(OC(=O)C1=COCCO1)C(=O)Nc1ccc(Cl)cn1 (configuration not stated)	14%
COc1cc(NS(=O)(=O)c2ccc(NC(=O)/C(=C/c3ccccc3Cl)NC(=O)c3ccccc3)cc2)nc(OC)n1	0%
O=C1c2oc3ccccc3c(=O)c2C(c2ccc(O)cc2)N1Cc1ccc2c(c1)OCO2 (configuration not stated)	9%
CC(C)Cc1cc(-c2ccco2)c(C#N)c(N)n1	-18%
O=C(O)/C=C\C(=O)Nc1ccccc1C(=O)N1CCN(c2ccc(Cl)cc2)CC1	-3%
O=C1CCCCC1	7%
CC(=O)Nc1ccc(NC(=O)Cn2cnc(S(=O)(=O)N3CCOCC3)c2)cc1	2%
CCOC(=O)c1sc(Nc2nc3c(F)cccc3s2)cc1C	8%
Cc1ccc(-c2c(C#N)c(N)n3c(nc4ccccc43)c2C#N)cc1	-10%

Remaining list, next part
SMILES	VDR inh
CC(=O)c1cc2ccccc2oc1=O	-4%&-1%
CCCCC(=O)Nc1cccc(NC(=S)NC(C)=O)c1	?
CC(C)(C)[C@@H]1CCC(=O)N(CC[C@H](Sc2ccc(Br)cc2)c2ccccc2)CC1	-26%
CC(=O)Nc1ccc(NC(=O)c2ccc(COc3ccc(Cl)cc3Cl)o2)cc1	6%
C#CCOCCOCCOCCNc1nc(N2CCN(C(=O)[C@H](CCC(=O)O)n3cc(C(N)CO)nn3)CC2)nc(N2CCN(C(=O)[C@H](Cc3cc4ccccc4[nH]3)n3cc(C(N)[C@H](C)CC)nn3)CC2)n1 (some centres not stated)	-4%
CCOC(=O)N1CCN(C(=O)c2ccc3c(c2)N(Cc2cc(C)ccc2C)C(=O)c2ccccc2S3=O)CC1 (configuration not stated)	12%&-23%
Cc1cccn2c(CNCCCn3ncc4ccccc43)c(C(=O)N3CCCCC3)nc12	26%
Cc1ccc(N2CC(c3nnc(Cc4ccccc4Cl)o3)CC2=O)cc1 (configuration not stated)	0%
CN(C)c1ccc(NS(=O)(=O)c2cc(Cl)ccc2Cl)cc1	4%

High-throughput results (PubChem)
